High-throughput results (PubChem)
Sa growth inh – inhibitors of Staphylococcus aureus growth at 42 °C; relative growth, % (test concentration not listed); S. aureus RN4220 growth, OD600, 20 h; active compounds read low; hit rate 0.53% among 170,000;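 active = growth at 42 °C up to 50% and 20 or more points under that at 30 °C, or under 10% at both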;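 note: 300 nL library stock went into each well; scaled to the means of positive and negative controls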
GIV-Gai inh – inhibitors of GIV GBA-motif binding to rat Galpha-i3; P08753; Galpha-i3/FITC-GIV peptide fluorescence polarization, 90 min; active compounds read low; scaled: aluminum fluoride 0%, vehicle 100%; percent of control (FP), % (concentration not given with the values); hit rate 0.42% among 210,000;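 active = replicate mean at 85% of control or lower, very high polarization wells dropped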;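 note: wells of about 15 µL received 100 nL stock; the first replicate is given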
Target sequence (P08753 whole entry, looked up): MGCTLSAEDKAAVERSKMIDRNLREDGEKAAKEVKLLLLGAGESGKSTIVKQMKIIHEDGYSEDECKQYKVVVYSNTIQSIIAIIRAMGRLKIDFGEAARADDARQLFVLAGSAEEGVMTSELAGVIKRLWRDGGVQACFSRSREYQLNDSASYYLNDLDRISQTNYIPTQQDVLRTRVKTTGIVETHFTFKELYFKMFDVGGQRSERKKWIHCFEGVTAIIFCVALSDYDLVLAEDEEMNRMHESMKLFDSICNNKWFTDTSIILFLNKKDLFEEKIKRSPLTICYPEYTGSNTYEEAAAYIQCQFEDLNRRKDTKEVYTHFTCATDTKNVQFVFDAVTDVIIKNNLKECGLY
HCMV UL50-53 inh – inhibitors of HCMV UL50-UL53 nuclear egress complex interaction; HTRF UL50-UL53 interaction, normalized percent inhibition; inhibition, % (no concentration beside the values); hit rate 0.15% among 190,000;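 active = both replicates at 50% or more, plus weaker picks with an unusually low signal ratio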;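 note: stock transfer was 100 nL into about 20 µL; 0% = negative control wells and 100% = wells with untagged competitor protein; inactives centre near -12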
Sa growth inh second temp – recorded beside Sa growth inh, whose call it bears; relative growth, %; measured here: growth at 30 °C;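 optical density after 20 h as mean of two plates; 100% = untreated growth and lower means inhibition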
Active calls of the source: *; x = no result given; & = joins results of further samples.

SMILES	Sa growth inh	Sa growth inh second temp	GIV-Gai inh	HCMV UL50-53 inh
COCCOC(=O)C1=C(N)OC2=C(C(=O)CC(C)(C)C2)C1c1cccc([N+](=O)[O-])c1 (configuration not stated)	x	x	108	-36
O=C(Oc1ccc(-c2nnco2)cc1)c1ccc2ccccc2c1	97	93	x	-17
COc1cc(NC(=O)NCC(c2ccc(OC)c(OC)c2)c2c[nH]c3ccccc23)cc(OC)c1 (configuration not stated)	x	x	97	-24
COc1ccc2oc(=O)c(C(=O)NCc3ccco3)cc2c1	93	74	95	-86
COc1cccc(OC)c1C(=O)NCCc1sc(-c2ccc(F)cc2)nc1C	x	x	108	-18
Cc1nnc(SCC2=NN(c3nc4ccccc4s3)C(=O)C2)s1	71	39	105	-14
Cc1cc(C)n(C(=O)C2CCCN2S(=O)(=O)c2ccc(Cl)cc2)n1 (configuration not stated)	89	88	99	-35
CCCc1nn2c(=O)cc(COC(=O)c3ccc(NC(=O)c4cccs4)cc3)nc2s1	99	90	98	x
CCOc1ccc(-c2nc(CSCC(=O)N3CCc4ccccc43)c(C)o2)cc1	100	90	103	-6
CCOC(=O)C1=C(C)Nc2nnnn2C1c1ccc(OCc2ccccc2)c(OC)c1 (configuration not stated)	x	x	109	7
CCc1c(C)sc(NC(=O)c2cc(-c3cccs3)on2)c1C#N	90	83	102	-18
CCc1ccc(CNC(=O)Cn2nc(C)n3c(cc4cc(C)ccc43)c2=O)cc1	93	89	96	-19
Cc1ccc(-c2cc3c4nnc(CCC(=O)N5CCN(C6CCCCC6)CC5)n4ccn3n2)cc1C	x	x	106	-12
CCOC(=O)c1sc(C)nc1C1CCN(C(=O)OCC)CC1	107	82	102	-19
O=S(=O)(NCCc1ccccn1)c1cc(S(=O)(=O)c2ccccc2)cs1	81	92	106	-6
CCOc1ccc(-n2nc(CO)c(C(=O)NCC3CCCO3)n2)cc1 (configuration not stated)	x	x	102	-1
COc1ccc(-c2cc(C)no2)cc1S(=O)(=O)Nc1c(C)cc(C)cc1C	103	85	102	x
CCc1ccc(NC(=O)n2ncc3c(C)cccc32)cc1	83	79	106&105	-17
Cc1ccc(S(=O)c2snnc2-c2ccc(Cl)cc2)cc1 (configuration not stated)	x	x	107	-10
Fc1ccc(Nc2nc3ccccc3s2)cc1	89	100	x	6
Cc1sc(-c2noc(C3CC3)n2)cc1S(=O)(=O)N1CCC(C(=O)NC2CCC(C)CC2)CC1 (configuration not stated)	x	x	103	-6
O=C(CSCCN1C(=O)c2ccccc2C1=O)NCc1cccs1	103	106	x	7
Cc1csc(NC2=NCCCCC2)n1	93	91	x	-2
CCOC(CNCc1ccco1)OCC	102	102	x	-21
O=C(CSc1nnc2n1CCN2c1ccccc1)OCc1ccccc1	x	x	101	-35
O=C(COC(=O)c1n[nH]c(=O)c2ccccc12)NC1C2CC3CC(C2)CC1C3 (configuration not stated)	103	94	x	-14
COC(=O)c1ccc(CO/N=C(\N)c2c(-c3c(Cl)cccc3Cl)noc2C)o1	96	89	103	-17
CCN(CC)c1nc(-c2ccccc2O)nc2ccccc12	89	83	96	-4
CCN(CC)CCCNC(=O)C1CCN(c2ccc3nnc(C)n3n2)CC1	x	x	97	-16
COc1cc(C(=O)NCC(c2ccc(N(C)C)cc2)N2CCc3ccccc32)cc(OC)c1OC (configuration not stated)	107	88	102	x
CCOC(=O)c1ccc(N=Cc2ccc3ccccc3c2)cc1	89	91	x	-18
Clc1ccnc(-c2ccccc2)n1	94	116	97	2
CCOc1ccc(-n2c(O)c(C3=c4ccccc4=NC3=O)sc2=O)cc1	96	99	100	x
CCOC(=O)c1ccc(Nc2c(CC)c(C)nc3nc(-c4ccccc4)nn23)cc1	x	x	104	-23
Cc1cc(SCC(=O)Nc2cccc(C#N)c2)nc2ccccc12	83	101	x	-17
CC(C)CCNS(=O)(=O)c1ccccc1	96	98	x	-2
CNC(=O)CSc1nnc(-c2ccccc2)n1C	100	81	99	-29
O=C(COC(=O)C1CCCN1S(=O)(=O)c1cccc2nsnc12)c1ccco1 (configuration not stated)	87	90	x	-56
Cc1ccc(S(=O)(=O)c2cn(Cc3cccc(Cl)c3)c3cc4c(cc3c2=O)OCO4)cc1	98	88	108	x
O=C(Cn1nc(-c2ccc(Cl)cc2)ccc1=O)NCCc1ccccc1	121	87	98	x
CCOC(=O)c1nc(NC2CC2)c2c(C)noc2n1	x	x	105	11
COc1ccc(N2CCN(S(=O)(=O)c3ccc4c(c3)C(C(C)C)C(=O)N4)CC2)cc1 (configuration not stated)	121	99	103	x
CCC(C)Cn1c(C2CCCO2)nc2ccccc21 (configuration not stated)	x	x	102	-31
COc1cccc(-n2cc(C(=O)NCCc3cccc(C)c3)c3ccccc3c2=O)c1	87	92	106	x
S=c1nc(-c2ccccc2)n(-c2ccccc2)[nH]1	95	87	101	-27

6 structures from above, sorted by formula weight, highest first.
SMILES	Sa growth inh	Sa growth inh second temp	GIV-Gai inh	HCMV UL50-53 inh
CCOC(=O)c1ccc(Nc2c(CC)c(C)nc3nc(-c4ccccc4)nn23)cc1	x	x	104	-23
CCOc1ccc(-n2c(O)c(C3=c4ccccc4=NC3=O)sc2=O)cc1	96	99	100	x
Cc1cc(SCC(=O)Nc2cccc(C#N)c2)nc2ccccc12	83	101	x	-17
CNC(=O)CSc1nnc(-c2ccccc2)n1C	100	81	99	-29
CC(C)CCNS(=O)(=O)c1ccccc1	96	98	x	-2
Clc1ccnc(-c2ccccc2)n1	94	116	97	2

Other compounds follow.
SMILES	Sa growth inh	Sa growth inh second temp	GIV-Gai inh	HCMV UL50-53 inh
Cc1cc(N)c2ccccc2[n+]1CCCCCCCCCC[n+]1c(C)cc(N)c2ccccc21	x	x	104	-26&4
O=C(NCCN1CCCC1)c1ccc(NC(=O)N2CCCCc3ccccc32)cc1	x	x	99	-27
COC(=O)c1ccc2c(=O)n(CCN3CCc4ccccc4C3)c(=S)[nH]c2c1	x	x	106	-62
Cc1ccc(Cl)cc1NC(=O)C1CCN(S(=O)(=O)c2cccc3nonc23)CC1	113	92	107	-27
O=C(COc1ccc(Br)cc1C(=O)Nc1ccc(Cl)cc1)NC1CC1	97	69	x	-5
CCC1Oc2ccc(C)cc2N(CC(=O)NC(C)CCc2ccccc2)C1=O (configuration not stated)	92	79	102	x
Cc1ccc(C)c(CN2C(=O)CSc3ccc(C(=O)NCc4ccccc4)cc32)c1	92	95	107	x
COCc1cc(Cl)nc(-c2ccccc2)n1	x	x	101	-14
CSCC(=O)Nc1ccc(F)c(Cl)c1	113	86	103	-3
C=CC(C)(O)CC[C@]1(C)[C@H]2CC(=O)C=C(C)[C@]2(C)C[C@@H](O)[C@@H]1C (some centres not stated)	89	82	103	-19
O=C(OCCN1C(=O)c2ccccc2C1=O)c1ccc(Cl)cc1	94	97	103	4
O=C(Cc1nncn1-c1ccccc1)c1ccc(O)cc1O	102	96	x	-12
C=C/C(C)=C/[C@@]1(C)SC(=O)C(C)=C1O	x	x	96	-12
CC/C(O)=c1\ccc2cccc3nc(CC)nc1c23	87	65	x	-50
CC(=O)NCCC(=O)Nc1ccc(-c2cn3ccsc3n2)cc1	89	97	x	3
CCCCOc1ccc(OC(=O)c2sc3ncn(Cc4cccc(F)c4)c(=O)c3c2C)cc1	99	92	106	x
CC1CCN(C(=O)CN(CCc2ccccc2)S(C)(=O)=O)CC1	100	91	104	-8
COc1ccc(/C=C/C(=O)N2CCCC2)cc1OC	81	89	x	-39
CCc1nc(-c2cc(S(=O)(=O)N3CCCC(C(=O)Nc4ccc(C)c(F)c4)C3)c(C)s2)no1 (configuration not stated)	x	x	105	-9
O=C(N=S1CCN(c2ncc(C(F)(F)F)cc2Cl)CC1)c1ccccc1	101	86	105	-49
CCCCc1nnc(SCC(=O)Nc2ccccc2)n1CC	98	100	109	2
CC(C)(C)c1cccc(C2(O)C(=O)c3ccccc3C2=O)c1O	95	89	106	-1
COc1cccc(NC(=O)C2CCCN(S(=O)(=O)c3cccc4nonc34)C2)c1 (configuration not stated)	111	105	111	1
CCOc1ccc(/C=C/c2nc(C#N)c(N3CCC(C)CC3)o2)cc1	98	91	103	6
CCc1ccc(NC(=O)CN2C(=O)c3ccccc3Sc3ccc(C(=O)N4CCCC4)cc32)cc1	138	76	106	x
CC(=O)N1CCCSc2ccc(S(=O)(=O)NCCCOC(C)C)cc21	x	x	101	-12
O=C(CSc1nnc(-c2cccnc2)o1)c1ccc(Br)cc1	x	x	97	-18
COc1ccc(C(=O)Nc2cccc(NC(C)=O)c2)c(OC)c1	112	69	104	-8
Cc1ccc(CNS(=O)(=O)c2cc3c(cc2C)N(C)CCO3)cc1	90	80	103	x
O=C(Cc1cccs1)NCc1cccc(Br)c1	108	90	104	-19
COc1ccccc1CCNC(=O)C(=O)NCC(c1cccs1)S(=O)(=O)c1cccs1 (configuration not stated)	108	93	97	x
CC(C)NC(=O)c1n[nH]c(=O)c2ccccc12	92	86	102	-3
O=S(=O)(NCc1ccccc1)c1cccs1	109	64	110	4
CCCCC(=O)N1c2ccccc2C(C)(c2ccccc2)CC1(C)C (configuration not stated)	94	77	106	-24
CCCn1c(CCC(=O)Nc2cccc(C)c2C)nc2cccnc21	97	102	119	-18
Cc1ccc(OCc2nc3ccccc3n2Cc2ccccc2Cl)cc1	113	88	105	-21
Cc1ccc(CN2CCc3nc(N4CCN(c5ccccc5F)CC4)ncc3C2)s1	99	98	107	x
Cc1cc(C)nc(SCC(=O)OCC(=O)Nc2ccc3c(c2)CCC3)n1	102	89	x	-5
O=S(=O)(c1ccc(F)cc1)N(Cc1ccc2c(c1)OCO2)c1ccc(F)cc1	93	91	102	-4
Cc1c(-c2ccccc2)c(=O)oc2c(CN3CCCC3)c(O)ccc12	82	93	105	x
COc1cc(Cl)c(C)cc1NC(=O)Cn1c(C)c2cnn(-c3ccccc3)c(=O)c2c1C	106	84	108	-22
CCC1CN(C(=O)N2CCC(C(=O)NCCc3ccc(OC)c(OC)c3)CC2)c2ccccc2O1 (configuration not stated)	106	88	104	-20
Cc1[nH]nc2c1C(c1ccc(OC(C)C)cc1)CC(=O)N2 (configuration not stated)	x	x	101	-10
CC(=O)N1CCSc2ccc(S(=O)(=O)Nc3ccc(Cl)cc3)cc21	x	x	110	-1
CCc1nnc2c(Nc3ccccc3Br)nc3ccccc3n12	108	94	109	-8
COCCn1ccc2nc(C)c(C(=O)NCCC(C)C)cc2c1=O	90	87	97	-18
O=S1(=O)C=CC2ON=C(c3c(Cl)cccc3Cl)C21 (configuration not stated)	100	84	104	16
O=C(Nc1cccc(Br)c1)N1CCCC(CN2CCc3ccccc3C2)C1 (configuration not stated)	143	62	99	x
Cc1cc(C)cc(-n2c(C)cc(/C=C(\C#N)C(=O)Nc3ccccc3)c2C)c1	107	116	103	3
COc1ccc(CNC2=CC(=O)CC(C)(C)C2)cc1	95	91	102	-19
O=C(Nc1c2c(nn1-c1ccccc1)CSC2)C1CCCCC1	91	64	101	6
CCC(C)c1ccc(NC(N)=S)cc1 (configuration not stated)	66	88	x	-4
Cc1ccc(C2/C(=C(\O)c3ccccc3)C(=O)C(=O)N2c2ccccn2)cc1 (configuration not stated)	121	87	x	-34
C=CCNc1nc(C(=O)OCc2ccc(C#N)cc2)cs1	100	91	x	4
O=C(O)CC(c1ccc(F)cc1)c1ccco1 (configuration not stated)	106	75	101	-4
CC(C)(C)c1ccc(C(=O)Nc2c3c(nn2-c2ccc(Cl)cc2)CSC3)cc1	95	63	99	x
C#CCSc1nc2sc3c(c2c(=O)n1-c1cccc(OC)c1)CCN(C(C)=O)C3	104	55	101	-5
Cc1cccc(-c2nnc(C3CCNCC3)o2)c1	75	75	103	x
O=S(=O)(NCc1ccccc1)c1cccc(Cl)c1	86	95	x	-7
COc1cc(NC(=O)C(Cc2ccccc2)n2cccc2)cc(OC)c1 (configuration not stated)	97	99	102	9

Complete entries, looked up by structure. Screens in order: Sa growth inh | Sa growth inh second temp | GIV-Gai inh | HCMV UL50-53 inh
`CCC(C)c1ccc(NC(N)=S)cc1` (configuration not stated) is listed as 66 | 88 | x | -4
`O=C(Nc1cccc(Br)c1)N1CCCC(CN2CCc3ccccc3C2)C1` (configuration not stated) is listed as 143 | 62 | 99 | x

Remaining list, next part:
SMILES	Sa growth inh	Sa growth inh second temp	GIV-Gai inh	HCMV UL50-53 inh
N#CCSc1nnc(-c2ccccc2)n1-c1ccccc1	94	91	108	0
COc1ccc(C(=O)CSc2nc(-c3cccc(C)c3)ns2)cc1	103	82	101	x
O=C(Oc1cc(=O)n(-c2ccccc2)c2ccccc12)c1ccccc1	120	88	119	-9
O=C(Nc1cc(OCC(F)(F)F)cc(OCC(F)(F)C(F)F)c1)c1cccnc1	123	103	105	2
CC(C)(C)OC(=O)Nc1ccc2c(c1)OCO2	91	85	97	-17
Cc1cccc(NC(=O)CSc2nc(=O)n(Cc3ccco3)c3c2CCC3)c1C	128	55	103	x
CCOC(=O)c1ccc(Nc2nc3nonc3nc2N2CCC(Cc3ccccc3)CC2)cc1	x	x	95	-11

Molecules listed so far with bromine:
SMILES	Sa growth inh	Sa growth inh second temp	GIV-Gai inh	HCMV UL50-53 inh
O=C(COc1ccc(Br)cc1C(=O)Nc1ccc(Cl)cc1)NC1CC1	97	69	x	-5
O=C(CSc1nnc(-c2cccnc2)o1)c1ccc(Br)cc1	x	x	97	-18
O=C(Cc1cccs1)NCc1cccc(Br)c1	108	90	104	-19
CCc1nnc2c(Nc3ccccc3Br)nc3ccccc3n12	108	94	109	-8
O=C(Nc1cccc(Br)c1)N1CCCC(CN2CCc3ccccc3C2)C1 (configuration not stated)	143	62	99	x
